AID504770 – growth inhibitors of E. coli YBA685 in a screen for V. cholerae RctB (chromosome II replication) inhibitors; E. coli YBA685 rctB-dependent plasmid, OD600 growth, 3 h; hits give low values; z-score (test concentration not listed); 0.27% of 130,000 active; AID 504770;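 active = z-score under -2 on both plates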;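 note: wells of about 30 µL received 100 nL stock; score is relative to mean and SD of the test wells; the first replicate is given; strong numbers were not always called active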
CapD inh – inhibitors of Bacillus anthracis CapD enzyme; 0.23% of 140,000 active; purified CapD enzyme, fluorescence intensity read-out; hits give low values; some hits fall short of the stated cut; AID 492967; z-score (test concentration not listed);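 active = z-score under -4 in either of two replicates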;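 note: stock transfer was 100 nL into about 40 µL; score is relative to mean and spread of the plate; one replicate is shown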
* marks the source's active call; other numbers are inactive results; i = inactive; / = no result given; & = joins results of further samples.

SMILES | AID504770 | CapD inh
CC(=O)NC12CC3CC(C1)CC(NC(C)=O)(C3)C2 | 0.55 | 0.29
CN(C(=O)c1ccc(C#N)cc1)C1CCCCC1 | 0.35 | /
CCOC(=O)CSc1sc(C(=O)OCC)c(N)c1C#N | -0.4 | 0.27
COc1ccc(-c2c(C#N)c(SCC(=O)OC(C)C)nc(C)c2C(=O)Nc2ccccc2)cc1 | / | 0.975
CCn1c(=NC(=O)c2cccs2)sc2cc(OC)c(OC)cc21 | -0.35 | /
COc1ccc(/C=C/C(=O)C2CC2)cc1COc1cccc(C)c1C | -0.5 | 0.935
CSc1nc(Oc2ccc(F)cc2)c2cnn(-c3ccccc3)c2n1 | / | -0.065
CCOC(=O)C1=C(C)NC(=O)CC1c1ccccc1Cl (centres undefined) | 1.85 | -0.38
Cc1ccc(S(=O)(=O)N2N=C(C(C)C)CC2(O)C(F)(F)F)cc1 (centres undefined) | -1.2 | /
CN(C(=O)CSc1nc(O)cc(=O)n1-c1ccccc1F)c1ccccc1 | -0.45 | 0.565
CCCC(=O)Nc1nonc1-c1ccc(OC)cc1 | 0.65 | 1.02
COc1ccccc1-c1coc2cc(OC(C)C(=O)OCc3ccccc3)ccc2c1=O (centres undefined) | / | -0.32
Cc1nc(-c2ccc(C(=O)N3CCCCC3)cc2)cs1 | 0.25 | 0.565
O=C(CC(=O)C(F)(F)F)c1ccc2c(c1)OCO2 | / | -1.42
CCN(CC)CCOC(=O)c1ccc2c(c1)OCCO2 | / | 0.45
Cc1ccc2[nH]c(=O)c3cc(C(=O)NC(C)CCc4ccco4)sc3c2c1 (centres undefined) | -0.1 | 80.7
O=S(=O)(c1ccccc1)N1CCN(C2c3ccccc3-c3ccccc32)CC1 | / | -0.145
COc1cc(NS(=O)(=O)N2CCCC2)cc(OC)c1OC | 2 | -0.14
COc1cc(OC)c(CN2CCN(C(=O)OCCN(Cc3cc4ccccc4c4ccccc34)C(=O)OC(C)(C)C)CC2)c(OC)c1 | / | 0.16
CCOc1ccc(N(C(C)C(=O)NCc2ccc(C)cc2)S(C)(=O)=O)cc1 (centres undefined) | -0.6 | -0.005

Some of the entries so far, in markdown.
| smiles | AID504770 | CapD inh |
| --- | --- | --- |
| Cc1ccc2[nH]c(=O)c3cc(C(=O)NC(C)CCc4ccco4)sc3c2c1 (centres undefined) | -0.1 | 80.7 |
| O=S(=O)(c1ccccc1)N1CCN(C2c3ccccc3-c3ccccc32)CC1 | / | -0.145 |

Next section
SMILES | AID504770 | CapD inh
Cc1cccc(NC(C(=O)O)c2ccccc2)c1 (centres undefined) | 0 | 1.06
CCOc1ccc(C(C(=O)NC2CCCC2)N(Cc2ccco2)C(=O)Cn2nnc3ccccc32)cc1OC (centres undefined) | 1.45 | /
NC1=NN=C(c2ccccc2)CS1 | -0.6 | -0.495
COc1ccc(-c2ccc(C#N)c(=O)n2Cc2ccc(Cl)c(Cl)c2)cc1 | / | 20.8
COc1cc(OC)nc(Oc2ccc3c(-c4ccncc4)cc(=O)oc3c2)n1 | / | 0.14
O=C(c1ccc(F)cc1)c1ccc(-c2nc3ccccc3nc2-c2ccc(F)cc2)cc1 | / | -0.09
O=C(c1ccccc1)c1cc(Cl)ccc1NC(=O)C(F)(F)F | 0.55 | -0.38
Cc1[nH]cnc1-c1ccc(C(F)(F)F)cc1 | / | 0.17
O=C(O)c1ccc2c(c1)C1C=CCC1C(c1cccc3ccccc13)N2 (centres undefined) | / | -0.62
COCCn1c(C)cc(/C=C2/C(=O)N(c3ccccc3)c3ccccc32)c1C | 0.25 | 3.81
CC(C)Nc1nc2nonc2nc1Nc1ccccc1 | / | -2.98
O=C(COC(=O)c1c(F)cccc1F)c1cccs1 | -0.4 | /
Cc1ccc(/C=N/N2C(=O)C3C(C2=O)C2C=CC3C23CC3)o1 (centres undefined) | -1 | -1.52
O=C(c1ccc(CS(=O)(=O)c2ccccc2)o1)N1CCOCC1 | -1.7 | -0.39
CN(C)CCN(C(=O)C1=COCCO1)c1nc2ccc(F)cc2s1 | 0.35 | -0.8
COC(=O)c1[nH]c(=O)c2ccccc2c1O | -1.45&1.45 | 21.1&7.2
NNC(=O)CNC(=O)c1cccs1 | -0.35 | /
COc1cc2c(cc1OC)C(c1cccc(C)c1)N(C(=O)c1sc3ccccc3c1Cl)CC2 (centres undefined) | / | 0.635
COc1ccc2[nH]cc(CCNC(=O)OCCc3ccc(C)cc3)c2c1 | / | -0.72
O=C(Nc1ccc(N2CCOCC2)cc1)c1ccc2c(c1)S(=O)(=O)c1ccccc1C2=O | -0.8 | /
O=C(O)c1nc2ccc(S(=O)(=O)C(F)(F)F)cc2n1O | -0.65 | /
Clc1ccccc1Cn1c2ccccc2c2nc3ccccc3nc21 | / | 0.48
O=C(OCCN1CCCC1=O)c1cccnc1Cl | -2.9 | 0.08
O=C1NC(=O)C(C2CCS(=O)(=O)C2)C(=O)N1 (centres undefined) | 0.15 | /
COCC(C)n1c(COc2ccccc2F)nn(CN2C(C)CCCC2C)c1=S (centres undefined) | -0.25 | /
COC(OC)c1ccnc(SCC(=O)Nc2ccc(C(C)C)cc2)n1 | -0.55 | 0.9
C(=C\c1ccccc1)/CN1CCN(CC2CCCCC2)CC1 | -0.4 | 0.165
Cc1ccc(Sc2ncccc2C(=O)O)c(C)c1 | 0.3 | /
ON=C1CC2CCCC(C1)N2Cc1cccs1 | -0.15 | 0.08
c1nc(NCCCN2CCOCC2)c2c3c(sc2n1)CCCCC3 | -0.4 | -0.665
COc1ccc(CNC(=O)C(C)N2CCC(c3nc4ccccc4o3)CC2)cc1 (centres undefined) | -0.4 | /
COc1ccc(OCC(O)CNC(=O)c2cccnc2Oc2ccc(Cl)cc2)cc1 (centres undefined) | 1.45 | -0.705
Cc1cccc(C)c1NC(=O)NN1C(C)CCCC1C (centres undefined) | -0.7 | 0.155
CN(C(=O)CN(C)S(=O)(=O)c1cccc2nsnc12)c1ccc(Br)cc1 | 0.3 | -0.26
CCOC(=O)c1oc2ccccc2c1NC(=O)CCN1CCCCC1 | 1.55 | 0.85
CC(C)(C)c1cc(CN2CCOCC2)c(O)c(CN2CCOCC2)c1 | -0.55 | i
O=C(CSC(F)(F)F)Nc1ccccn1 | -0.9 | 0.395
CC1CCCCC1NC(=O)c1cccn2c(=O)c3c4c(sc3nc12)CCCC4 (centres undefined) | -1.35 | -0.09
O=C(Cc1ccc(S(=O)(=O)N2CCCC2)s1)N1CCOCC1 | -0.7 | /
c1cncc(Oc2nc(-c3cccnc3)nc3ccccc23)c1 | 0.4 | /
Cc1[nH]c2ccccc2c1C(c1c(C)[nH]c2ccccc12)C(C)C | -0.3 | 0.59
O=C(Nc1ncc(-c2ccc(Br)cc2)s1)c1sc2ccccc2c1Cl | / | -0.18
C=CCN1C(=O)CC(c2ccccc2)Nc2ccccc21 (centres undefined) | / | -0.195
CCOC(=O)CSc1nc(C2CC2)cc(-c2ccccc2)c1C#N | -0.55 | 0.32
Cn1c(=O)c2c(nc3sccn32)n(C)c1=O | 0.85 | /
S=c1[nH]nc(Cc2ccccc2)n1Cc1ccco1 | -0.2 | /
CCCc1cc(=O)c2c(O)cccc2o1 | -0.55 | -0.535
O=c1oc2ccccc2cc1[N+](=O)[O-] | / | -1.73
Cc1ccc2cc(NC(=O)c3ccco3)ccc2n1 | / | 0.285
Nc1nc2c(s1)CCc1c-2cnn1-c1ccccc1 | -0.65 | 17.8
CCCN(CCO)CC1CC=CCC1 (centres undefined) | -0.55 | 0.375
Cn1c(C(=O)Nc2ccccc2)cc2sccc21 | -0.55 | /
NS(=O)(=O)c1ccc(NC(=O)CSc2ccccc2)cc1 | -0.55 | /
CN(C)C(=O)COC(=O)c1cccc(Oc2ccccc2)c1 | -0.15 | -0.375
O=C(O)CSc1cc(Cl)ccc1Cl | -1 | 0.38
O=C(Nc1ccc2c3c(cccc13)CC2)C1=COCCO1 | 0.85 | /
c1ccc2cc3nc4c(nc3cc2c1)[nH]c1ccccc14 | / | 0.52
O=C(N/N=C\c1ccccc1C(F)(F)F)c1ccccn1 | -0.65 | -0.05
O=C(CC1SC(=NC2CC3C=CC2C3)NC1=O)Nc1ccccc1Cl (centres undefined) | 1.95 | 0.685
Cc1cccc(-c2nc(CS(=O)CC(=O)NCc3cccs3)c(C)o2)c1 (centres undefined) | 0 | 0.17
(next part)
SMILES | AID504770 | CapD inh
c1csc(CSc2nc3ccccc3[nH]2)c1 | -0.5 | 9.18
Cc1ccc(N2C(=O)C3C(c4ccccc4Cl)OC4(C(=O)c5ccccc5C4=O)C3C2=O)cc1 (centres undefined) | / | 0.25
Clc1ccc2c(Nc3ccc4c(c3)OCO4)ccnc2c1 | -0.3 | -0.495
CN(C1CCCCC1)S(=O)(=O)c1ccc(C(=O)Nc2nccs2)cc1 | 1.7 | -1.03
c1ccc(N2CCN(c3ccc(-c4nc5ccccc5[nH]4)cn3)CC2)cc1 | -0.15 | /
CN(C)C(=O)c1ccc(-c2cnn(C)c2)nc1 | / | -0.265
COCC(=O)Nc1ccc(CC#N)cc1 | -0.3 | 0.595
CNC(=O)c1ccc(/C=C2/Sc3ccccc3NC2=O)cc1 | 0.65 | 0.99
O=c1cc2nc(-c3ccco3)nc(SCc3ccccc3)n2[nH]1 | 0.8 | -1.61
O=S(N1CCCCC1)C12CC3CC(CC(C3)C1)C2 (centres undefined) | -0.05 | /
COC(=O)C1C2c3ccccc3C(c3ccccc32)C1C(=O)OC (centres undefined) | 0.4 | -0.75
Cc1ccc(-c2cn3nc(N4CCC(C(=O)NCCN(C)C)CC4)sc3n2)cc1 | 0.15 | 0.01
NC(=O)CN1C(=O)CC(c2ccco2)Sc2ccccc21 (centres undefined) | -0.6 | /
CCc1cc(Br)ccc1S(=O)(=O)N(C)Cc1cccnc1 | / | 0.45
COc1cccc(C(=O)Nc2ccccc2Sc2nc(C)cc(C)c2C#N)c1 | / | 0.13
Cc1cc(C)c(NC(=O)/C=N/O)c(Cl)c1 | -0.1 | /
COC(=O)CNc1ccc2c(c1)OCO2 | -0.7 | 1.04
COC(=O)Nc1ccc2c(c1)N(C(=O)CCN1CCOCC1)c1ccccc1S2 | -0.45 | /
NC1=NC(=O)CC(C(=O)Nc2cc(Cl)ccc2Cl)S1 (centres undefined) | -0.8 | 0.485
COc1ccc(/C=C2\Oc3ccc4c(C)cc(=O)oc4c3C2=O)cc1 | / | 0.01

Record cards, from the list above.
O=C(O)c1nc2ccc(S(=O)(=O)C(F)(F)F)cc2n1O is entered as AID504770 = -0.65; CapD inh = /
COC(OC)c1ccnc(SCC(=O)Nc2ccc(C(C)C)cc2)n1 is entered as AID504770 = -0.55; CapD inh = 0.9
NNC(=O)CNC(=O)c1cccs1 is entered as AID504770 = -0.35; CapD inh = /

Part of the list above, with tabs:
smiles	AID504770	CapD inh
Cc1ccc(-c2cn3nc(N4CCC(C(=O)NCCN(C)C)CC4)sc3n2)cc1	0.15	0.01
NC(=O)CN1C(=O)CC(c2ccco2)Sc2ccccc21 (centres undefined)	-0.6	/

Next results follow.
SMILES | AID504770 | CapD inh
COc1ccccc1NC(CC(=O)c1ccccc1)C(=O)O (centres undefined) | 0.45 | 0.035
CC(=O)/C(N=Nc1c(C)nn(C)c1C)=C(\C)O | / | -1.14
CCOC(=O)c1c(C)[nH]c(C)c1S(=O)(=O)NC(C)CC (centres undefined) | -0.7 | 0.48
CN1CCN(c2nc(-c3ccccn3)nc(-c3ccccc3)c2C#N)CC1 | / | 0.245
Cc1ccc(N2CC(C(=O)Nc3c(C)cccc3C)CC2=O)cc1 (centres undefined) | 0.45 | 0.295
Cc1sc(-c2ccc(-c3csnn3)cc2)nc1-c1ccccc1 | -0.65 | 7.81
CCn1c(CCNC(=O)Cc2ccccc2)nc2ccccc21 | -0.9 | -0.435
COC(=O)c1ccc(COC(=O)c2ccc(C)cc2C)cc1 | -0.4 | 8.05
CCOC(=O)c1sc2ncnc(OCC)c2c1C | 0.85 | 0.205
COc1ccccc1C(=O)N/C(=C\c1ccc2c(c1)OCO2)C(=O)Nc1ccc(C(C)=O)cc1 | / | 3.95
CCOc1ccc(NC(=O)C(=O)NCCN2CCN(S(=O)(=O)c3ccc(C)cc3)CC2)cc1 | / | 0.23
O=C(NCc1cccnc1)c1c[nH]c2cc3c(cc2c1=O)OCCO3 | -0.35 | /
O=C(c1ccc2ccccc2c1)C12CN3CN(CN(C3)C1)C2 | 2.6 | /
CC(=O)n1c(/C=C2/N=C(c3ccc([N+](=O)[O-])cc3Cl)OC2=O)cc2ccccc21 | / | 0.475
CCc1ccc(-c2ccc(C(=O)NCc3cccc(F)c3)cc2)cc1 | / | 0.025
O=C(c1ccccc1)N(Cc1ccccc1)c1ccccn1 | -0.05 | -0.405
CCc1ccc2[nH]c(=O)c(CN(CCCO)C(=O)Nc3ccccc3)cc2c1 | -0.55 | /
Nc1cc(SC(F)(F)C(F)(F)C(F)(F)F)cc2c1OCC(=O)N2 | 0.1 | /
Cc1c(-c2ccccc2)sc2ncnc(Sc3nnc(C4CC4)o3)c12 | -0.7 | /
CSC1=C(C#N)C(=O)NC(c2ccccc2O)S1 (centres undefined) | -1.35 | -0.665
CCOc1ccc(-n2c(SCC(=O)OC3CCS(=O)(=O)C3)nc3ccccc32)cc1 (centres undefined) | 1.4 | /
O=C(CN1C(=O)c2cccc3cccc1c23)N1CCc2ccccc21 | 0.7 | /
O=C(Nc1ccc2nc3n(c(=O)c2c1)CCCC3)c1ccccn1 | -0.4 | 0.395
O=[N+]([O-])c1cccc(S(=O)(=O)NCCSc2nc3ccccc3s2)c1 | / | -0.4

A draw from above in order of heavy-atom count, high to low.
SMILES | AID504770 | CapD inh
CCOc1ccc(-n2c(SCC(=O)OC3CCS(=O)(=O)C3)nc3ccccc32)cc1 (centres undefined) | 1.4 | /
Cc1c(-c2ccccc2)sc2ncnc(Sc3nnc(C4CC4)o3)c12 | -0.7 | /
O=C(Nc1ccc2nc3n(c(=O)c2c1)CCCC3)c1ccccn1 | -0.4 | 0.395
